High-throughput results as filed in PubChem.
FPR binding = FPR binders displacing fluorescent formyl peptide, primary screen, U937-FPR cells, fMLFK-FITC, flow cytometry (AID 362). inhibition, %. U937-FPR cells, fMLFK-FITC displacement, flow cytometry; stronger effect = higher value; test concentration not given here; most inactive calls were filed without a number and no value below 0 was filed. actives 1% (n = 4,300);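 active = inhibition of labelled peptide binding to the formyl peptide receptor of at least 65%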;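 note: plate controls were buffer control wells for no effect and unlabeled fMLFF blocking peptide for full effect; higher means less cell fluorescence so more probe displaced; part of the set was picked by virtual screening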
Starred values were filed as active, the others as inactive; i = inactive. These rows are one share of the data; the hit share may differ from the screen's.

SMILES | FPR binding
COc1ccc2c(c1)C(C)CC(C)(C)N2C(=O)c1sc2ccccc2c1Cl (centres undefined) | 16
CCCC1=C(C(=O)OCC)C(c2cccc([N+](=O)[O-])c2)NC(=O)N1 (centres undefined) | 1
COc1cc2c(cc1OC)C1C(C(=O)N3CCC(C)CC3)c3ccccc3C(=O)N1CC2 (centres undefined) | i
CCC(C)C(NC(=O)C(CCC(=O)OCc1ccccc1)NC(=O)C(CC(C)C)NC(=O)OC(C)(C)C)C(=O)NC(C)C(N)=O (centres undefined) | 4
CCN(CCCNC(=O)c1cn(CC(C)C)c(=O)c2cc(OC)c(OC)cc12)c1cccc(C)c1 | 10
O=C(NC1CCCC1)C(O)c1cc2c(cc1[N+](=O)[O-])OCO2 (centres undefined) | 2
CC1CCCC(NC(=O)C2CCC(CNS(=O)(=O)c3ccccc3)CC2)C1C (centres undefined) | i
COC(=O)/C(=C1\Oc2c(c(=O)oc3ccccc23)S1)C(F)(F)F | 7
CC1CN(Cc2c(O)ccc3c4c(c(=O)oc23)CCC4)CC(C)O1 (centres undefined) | i
O=C(NCc1ccccc1)C1CCC(CNS(=O)(=O)c2cccs2)CC1 (centres undefined) | 28
CCC(C)NC(=O)CSc1nc2ccsc2c(=O)n1CCCCCC(=O)Nc1ccc(OC)cc1 (centres undefined) | i
O=C(C1CCC(CNS(=O)(=O)c2ccc(F)cc2)CC1)N1CCC2(CC1)OCCO2 (centres undefined) | i
CCC(C)OC(=O)C1=C(C)NC2=C(C(=O)C(C(=O)OC)C(C)C2)C1c1ccc(OC)cc1OC (centres undefined) | 4
Cc1ccc(CNC(=O)CSc2nc3ccsc3c(=O)n2CCC(C)C)cc1 | 4
CCOC(=O)C(NC(=O)c1ccccc1Cl)(Nc1sc2c(c1C(N)=O)CCC2)C(F)(F)F (centres undefined) | 44
CCCCN(CC)C(=O)c1sc2ncn(CC(=O)Nc3ccc(OC)cc3)c(=O)c2c1C | i
CC(=O)N1CCCc2cc(S(=O)(=O)NC(C(=O)Nc3cc(C)ccc3C)C(C)C)ccc21 (centres undefined) | i
CCOC(=O)CN=CC1=C(O)CC(C)(C)CC1=O | i
CCCCN(CC)C(=O)c1sc2ncnc(N3CCN(c4ccccc4OC)CC3)c2c1C | i
COC(=O)C1=C(C)NC(=O)NC1C1CC=CCC1 (centres undefined) | i
OC(CC#CCN1CCCCC1)(c1ccccc1)C1CCCCC1 (centres undefined) | 7
CCOC(=O)c1cc2c(=O)n3ccccc3nc2n(CC(C)C)c1=NC(=O)c1ccccc1Br | 21
COC(=O)C1C(=O)C2=C(CC1C)NC(C)=C(C(=O)OC1CCCCCC1)C2c1ccccc1OC (centres undefined) | 14
COc1ccccc1C1C(C#N)=C(N)N(c2ncn[nH]2)C2=C1C(=O)CC(C)(C)C2 (centres undefined) | 6
O=C1C2C3C=CC(C3)C2C(=O)N1c1ccc(NCc2cccc(Cl)c2)c([N+](=O)[O-])c1 (centres undefined) | 9
O=C(O)C1CC=CCC1C(=O)Nc1cccnc1 (centres undefined) | 7
O=C(O)c1cc2cccc(S(=O)(=O)N3CCCCC3)c2cc1O | 41
COc1ccc2c(c1)C(C)=CC(C)(C)N2C(=O)Nc1ccc(Cl)cc1 | i
COc1cc(C2C3=C(CC(C)(C)CC3=O)OC3=C2C(=O)CC(C)(C)C3)ccc1OC(=O)c1ccc(F)cc1 | 4
O=C(c1ccccn1)N(Cc1ccco1)C1(C(=O)Nc2ccc(Br)cc2)CCCCC1 | i
CCOc1ccc(S(=O)(=O)Nc2ccc3c(c2)c2c(n3S(=O)(=O)c3ccc(OCC)cc3)CC(C)(C)CC2=O)cc1 | 36
O=C(CSc1nc(-c2ccccc2)nc2c1CCCC2)N1CCCCC1 | 87*
COc1ccc(C2(CC(=O)O)CCOC(C)(C)C2)cc1 (centres undefined) | i
CC1CC(C)CN(C(=O)c2cc(-c3cccnc3)nc3ccccc23)C1 (centres undefined) | i
NS(=O)(=O)c1ccc2c(c1)C1C=CCC1C(C(=O)O)N2 (centres undefined) | i
O=C(NO)C1CCC(CN(Cc2ccccc2)S(=O)(=O)c2ccc(Br)cc2)CC1 (centres undefined) | i
COC(=O)C1C(=O)C2=C(CC1C)NC(C)=C(C(=O)OC1CCCCC1)C2c1ccc(OC)c(O)c1 (centres undefined) | 12
CCN(CCCNC(=O)C1CCC(CNS(=O)(=O)c2ccccc2)CC1)c1cccc(C)c1 (centres undefined) | 15
CC1=C(C(=O)OCC(C)C)C(c2ccc3c(c2)OCO3)C2=C(CC(c3ccc(Cl)cc3)CC2=O)N1 (centres undefined) | 4
COC(=O)C1C(=O)C2=C(CC1C)NC(C)=C(C(=O)OC(C)C)C2c1cccc(Br)c1 (centres undefined) | i
Cc1cccc(Oc2c(C(F)(F)F)oc3c(CN(C)C4CCCCC4)c(O)ccc3c2=O)c1 | i
O=c1cc(O)c2sc3nc(-c4ccc5c(c4)OCCO5)cc(C(F)(F)F)c3c2[nH]1 | i
CC1=C(C(=O)OC2CCCCCC2)C(c2ccc(O)cc2)NC(=O)N1 (centres undefined) | i
CCN1CCN(Cc2c(O)ccc3c(=O)c(-c4ccccc4OC)c(C(F)(F)F)oc23)CC1 | i
CCCCOC(=O)COc1cc2oc(=O)c3c(c2cc1Cl)CCC3 | i
CCC(C)OC(=O)C1=C(C)NC2=C(C(=O)C(C(=O)OC)C(C)C2)C1c1c(F)cccc1Cl (centres undefined) | i
CCOc1cc(C2C(C(=O)OCCSCC)=C(C)NC3=C2C(=O)C(C(=O)OC)C(C)C3)ccc1O (centres undefined) | 18
CC(C)Cn1cc(C(=O)N2CCN(C)CC2)c2c3ccccc3n(C)c2c1=O | i
COc1cc(C2C(C(=O)OCC(C)C)=C(C)NC3=C2C(=O)CC(c2cccs2)C3)ccc1O (centres undefined) | i
COc1ccc(C2CC(=O)C3=C(C2)NC(C)=C(C(=O)OCC(C)C)C3c2ccc3c(c2)OCO3)cc1 (centres undefined) | 19

More results:
SMILES | FPR binding
COc1cc(C2NC(=O)N(C)C(C)=C2C(=O)OCC(C)C)cc(Br)c1O (centres undefined) | 22
COc1ccc(C2(C(=O)NCc3ccccc3Cl)CCCC2)cc1OC | i
CCOCCCNC(=O)C1CCC(CNS(=O)(=O)c2ccc(Cl)cc2)CC1 (centres undefined) | i
CC1(C)CC(=O)C(C(c2ccc3ccccc3c2)C2C(=O)CC(C)(C)CC2=O)C(=O)C1 | 81*
CCSCCOC(=O)C1=C(C)NC2=C(C(=O)C(C(=O)OC)C(C)C2)C1c1cc(OC)c(O)c([N+](=O)[O-])c1 (centres undefined) | 28
COC(=O)C1C2CCC(C2)C1C(=O)OCC(=O)c1ccc(Br)cc1 (centres undefined) | i
CCC(C)C(NC(=O)C(CC(=O)OCc1ccccc1)NC(=O)OC(C)(C)C)C(=O)NC(Cc1ccccc1)C(N)=O (centres undefined) | i
CCOC(=O)C1C(=O)C=C(c2cccc(OC)c2)CC1c1ccc(OC)c(OC)c1 (centres undefined) | 4
COc1ccc(C2(CNC(=O)CCOc3ccccc3)CCOCC2)cc1 | i
CCC(C)OC(=O)C1=C(C)NC2=C(C(=O)C(C(=O)OC)C(C)C2)C1c1cccc(OC)c1 (centres undefined) | i
COc1cc2c(C(=O)N(C)c3cc(C)ccc3OC)cn(CC(C)C)c(=O)c2cc1OC | 1
CCCCn1c(CN2CCN(C(c3ccccc3)c3ccccc3)CC2)nc2c1c(=O)n(C)c(=O)n2C | i
CCCCCOc1ccc(C(O)(CC(C)C)C(CN2CCOCC2)c2ccccc2)cc1 (centres undefined) | 6
COc1ccccc1C1C2=C(CC(C)(C)CC2=O)Nc2nc3ccccc3n21 (centres undefined) | i
O=C1CSC(c2cc3c(cc2Br)OCO3)N1C1CCCCC1 (centres undefined) | i
O=C(CSc1nc2ccsc2c(=O)n1CC1CCC(C(=O)O)CC1)c1ccc(Cl)cc1 (centres undefined) | i
O=[N+]([O-])c1ccc2c(c1)C=C1CCCCC1(NC1CCCCC1)O2 (centres undefined) | i
Cc1c(CCC(C)C)c(N2CCN(C)CC2)n2c(nc3ccccc32)c1C#N | i
CCC(C)C(C(=O)O)N1C(=O)NC2NC(=O)NC21 (centres undefined) | i
N#Cc1c2c(c(NCCOCCO)n3c1nc1ccccc13)CCCC2 | i

Laid out differently: entries from further up.
SMILES,FPR binding
COc1ccc2c(c1)C(C)CC(C)(C)N2C(=O)c1sc2ccccc2c1Cl (centres undefined),16
CCCC1=C(C(=O)OCC)C(c2cccc([N+](=O)[O-])c2)NC(=O)N1 (centres undefined),1
COc1cc2c(cc1OC)C1C(C(=O)N3CCC(C)CC3)c3ccccc3C(=O)N1CC2 (centres undefined),i
CCC(C)C(NC(=O)C(CCC(=O)OCc1ccccc1)NC(=O)C(CC(C)C)NC(=O)OC(C)(C)C)C(=O)NC(C)C(N)=O (centres undefined),4
CCN(CCCNC(=O)c1cn(CC(C)C)c(=O)c2cc(OC)c(OC)cc12)c1cccc(C)c1,10
O=C(NC1CCCC1)C(O)c1cc2c(cc1[N+](=O)[O-])OCO2 (centres undefined),2
CC1CCCC(NC(=O)C2CCC(CNS(=O)(=O)c3ccccc3)CC2)C1C (centres undefined),i
COC(=O)/C(=C1\Oc2c(c(=O)oc3ccccc23)S1)C(F)(F)F,7
CC1CN(Cc2c(O)ccc3c4c(c(=O)oc23)CCC4)CC(C)O1 (centres undefined),i
O=C(NCc1ccccc1)C1CCC(CNS(=O)(=O)c2cccs2)CC1 (centres undefined),28
CCC(C)NC(=O)CSc1nc2ccsc2c(=O)n1CCCCCC(=O)Nc1ccc(OC)cc1 (centres undefined),i
O=C(C1CCC(CNS(=O)(=O)c2ccc(F)cc2)CC1)N1CCC2(CC1)OCCO2 (centres undefined),i
CCC(C)OC(=O)C1=C(C)NC2=C(C(=O)C(C(=O)OC)C(C)C2)C1c1ccc(OC)cc1OC (centres undefined),4
Cc1ccc(CNC(=O)CSc2nc3ccsc3c(=O)n2CCC(C)C)cc1,4
CCOC(=O)C(NC(=O)c1ccccc1Cl)(Nc1sc2c(c1C(N)=O)CCC2)C(F)(F)F (centres undefined),44
CCCCN(CC)C(=O)c1sc2ncn(CC(=O)Nc3ccc(OC)cc3)c(=O)c2c1C,i
CC(=O)N1CCCc2cc(S(=O)(=O)NC(C(=O)Nc3cc(C)ccc3C)C(C)C)ccc21 (centres undefined),i
CCOC(=O)CN=CC1=C(O)CC(C)(C)CC1=O,i
CCCCN(CC)C(=O)c1sc2ncnc(N3CCN(c4ccccc4OC)CC3)c2c1C,i

The results go on.
SMILES | FPR binding
O=C(O)C1Nc2ccc([N+](=O)[O-])cc2C2C=CCC12 (centres undefined) | 37
CCOc1ccc2c(c1)C(C)=CC(C)(C)N2C(=O)Nc1ccccc1F | i
CCCCN(C)C(=O)c1sc2ncn(CC(=O)Nc3ccc(C)c(Cl)c3)c(=O)c2c1C | i
COc1cc2c(C(=O)N(C)CCc3ccccn3)cn(CC(C)C)c(=O)c2cc1OC | i
CCSCCOC(=O)C1=C(C)NC2=C(C(=O)C(C(=O)OC)C(C)C2)C1c1cccc(F)c1 (centres undefined) | 6
O=c1c(Oc2ccccc2)c(C(F)(F)F)oc2cc(OCc3ccccc3)ccc12 | i
Cc1ccc(S(=O)(=O)NCC2CCC(C(=O)N3CCN(Cc4ccccc4)CC3)CC2)cc1 (centres undefined) | i
CCSCCOC(=O)C1=C(C)NC2=C(C(=O)C(C(=O)OC)C(C)C2)C1c1ccc(C)c([N+](=O)[O-])c1 (centres undefined) | i
COc1ccccc1CNC(=O)C(NS(=O)(=O)c1ccc2c(c1)CCN2C(C)=O)C(C)C (centres undefined) | i
O=c1c(Oc2ccccc2Br)c(C(F)(F)F)oc2c(CN3CCCC3)c(O)ccc12 | 2
COC(=O)C1C(=O)C2=C(CC1C)NC(C)=C(C(=O)OC1CCCC1)C2c1cccc([N+](=O)[O-])c1 (centres undefined) | 15
CC1CCN(Cc2c(O)ccc3c4c(c(=O)oc23)CCC4)CC1 | i
CCN(C(=O)c1cn(CC(C)C)c(=O)c2cc(OC)c(OC)cc12)c1ccc(F)cc1 | i
CCOc1cccc(C2C(C(=O)OCCSCC)=C(C)NC3=C2C(=O)C(C(=O)OC)C(C)C3)c1 (centres undefined) | i
O=C(NCCCSC1CCCCC1)C1CCC(CNS(=O)(=O)c2ccc(Cl)cc2)CC1 (centres undefined) | 8
CC12CCC(C(=O)N3CCOCC3)(OC1=O)C2(C)C (centres undefined) | 1
CC(C)NC(=O)CSc1c2c(nc3ccccc13)CCCC2 | i
Cc1cc(C)c(S(=O)(=O)NCC2CCC(C(=O)NCCCN3CCOCC3)CC2)c(C)c1 (centres undefined) | i
CCCCn1c(SCC(=O)NCCc2ccc(OC)c(OC)c2)nc2ccsc2c1=O | i
CCOC(=O)c1cc2c(=O)n3ccccc3nc2n(CC(C)C)c1=NC(=O)COc1ccc2ccccc2c1 | 0

The closing two records of the part before are carried over, then new ones follow.
SMILES | FPR binding
CCCCn1c(SCC(=O)NCCc2ccc(OC)c(OC)c2)nc2ccsc2c1=O | i
CCOC(=O)c1cc2c(=O)n3ccccc3nc2n(CC(C)C)c1=NC(=O)COc1ccc2ccccc2c1 | 0
O=C1C2C3C=CC(C3)C2C(=O)N1c1cccc([N+](=O)[O-])c1 (centres undefined) | i
CCOc1cc(C2C(C(=O)OCCOC)=C(C)NC3=C2C(=O)C(C(=O)OC)C(C)C3)ccc1O (centres undefined) | 8
COc1ccc(C(C)(C)C)cc1NC(=O)C1C2C=CC(C2)C1C(=O)O (centres undefined) | 2
CCCOC(=O)C1=C(C)NC2=C(C(=O)C(C(=O)OC)C(C)C2)C1c1cccc(OCC)c1 (centres undefined) | 5
COC(=O)C1C(=O)C2=C(CC1C)NC(C)=C(C(=O)OC(C)C)C2c1ccc(-c2ccccc2)cc1 (centres undefined) | i
CCc1cc(C(=O)OC)c(NC(=O)C2CCCCC2C(=O)O)s1 (centres undefined) | 35
CCc1c(C)c(C#N)c2nc3ccccc3n2c1N1CCN(Cc2cc(F)ccc2OC)CC1 | i
O=C(OC1CCCCC1)c1ccc2c(c1)C1C=CCC1C(C(=O)O)N2 (centres undefined) | i
CCN(CC)c1ccc(C2C(C(=O)OC(C)C)=C(C)NC3=C2C(=O)C(C(=O)OC)C(C)C3)cc1 (centres undefined) | 4
